Compound activity (PubChem)
VDR inhibitor: vitamin D3 receptor (human) inhibition | P11473 | Potency, µM, without a hit: max response, negative = inhibition, hits mostly inhibitors | 400,000 tested, 0.93% active | VDR-SRC2-3 peptide fluorescence polarization, 2 h | AID 504847; active = well fitted inhibition curve with a large enough effect; inconclusive = small, poorly fitted or top-dose-only effect, or another doubt; inactive = no such curve, though single readings can be large or run the other way; note: series mostly up to about 120 µM
Target sequence (P11473 whole entry, looked up): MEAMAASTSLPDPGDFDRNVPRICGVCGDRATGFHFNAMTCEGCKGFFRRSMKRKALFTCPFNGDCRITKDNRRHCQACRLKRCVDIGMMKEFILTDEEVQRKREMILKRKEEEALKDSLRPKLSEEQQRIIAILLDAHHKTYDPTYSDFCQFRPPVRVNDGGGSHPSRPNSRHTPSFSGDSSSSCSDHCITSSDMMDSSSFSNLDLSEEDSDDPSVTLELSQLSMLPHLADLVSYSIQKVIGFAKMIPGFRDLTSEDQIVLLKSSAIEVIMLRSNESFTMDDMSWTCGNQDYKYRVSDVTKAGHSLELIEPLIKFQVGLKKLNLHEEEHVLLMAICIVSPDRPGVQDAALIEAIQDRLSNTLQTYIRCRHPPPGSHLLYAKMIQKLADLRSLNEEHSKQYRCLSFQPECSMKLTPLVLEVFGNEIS
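Compounds are added to VDR with labelled SRC2-3 coactivator peptide and held 2 h at room temperature. Inhibition of the VDR–peptide interaction is then read as a change in fluorescence polarization.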
Active calls of the source: *; ? = inconclusive; & = joins results of further samples. % is set by controls: 0 for no effect and ±100 for the full control effect; potency is the fitted concentration of half-maximal effect. This is a subset, so the mix of outcomes need not match the whole.

Start of the data: the first five compounds as a preview:
molecule	VDR inhibitor
COc1cc(NC(=O)CSc2nnnn2Cc2ccc3c(c2)OCO3)cc(OC)c1	-5%
CCC(C)Nc1nc(OC(C(F)(F)F)C(F)(F)F)nc(OC(C(F)(F)F)C(F)(F)F)n1 (stereo not drawn)	4%
CCC(=O)Nc1ccc(NC(=O)c2ccco2)c(OC)c1	-12%
COc1cccc(NC(=S)NCc2ccc(F)cc2)c1	19%
CCOc1ccc(-c2ccc(SC)nn2)cc1	3%

The listing, from the start:
molecule	VDR inhibitor
COc1cc(NC(=O)CSc2nnnn2Cc2ccc3c(c2)OCO3)cc(OC)c1	-5%
CCC(C)Nc1nc(OC(C(F)(F)F)C(F)(F)F)nc(OC(C(F)(F)F)C(F)(F)F)n1 (stereo not drawn)	4%
CCC(=O)Nc1ccc(NC(=O)c2ccco2)c(OC)c1	-12%
COc1cccc(NC(=S)NCc2ccc(F)cc2)c1	19%
CCOc1ccc(-c2ccc(SC)nn2)cc1	3%
CC(C)(C)OC(=O)N1CCCC(C(=O)Nc2cccc(C(=O)NCCCc3ccccc3)c2)C1 (stereo not drawn)	15%
Cc1ccc2c(c1)N(C)/C(=C/c1cccc[n+]1C)S2	-3%
CC(C)(C)n1ncc2c(=O)n(CC(=O)OCc3ccccc3)cnc21	-15%
COc1ccc(/C=N/c2c(-c3ccc(OC)cc3)nc3n2CCS3)cc1	9%
COc1cccc2cc(-c3cn4c(n3)sc3cc(F)ccc34)c(=O)oc12	14%
Cc1cccnc1NS(=O)(=O)c1cccc([N+](=O)[O-])c1	3%
COc1ccc(C2c3cc(OC)c(OC)cc3CC(=O)N2c2ccc(C)cc2)cc1 (stereo not drawn)	8%
CCOC(=O)COc1ccc(C(c2c(C)[nH][nH]c2=O)c2c(C)[nH][nH]c2=O)cc1	?
CCN1CCc2[nH]c3ccccc3c2C1	8%
CCOC(=O)N1CCN(C(=O)NC23CC4CC(CC(C4)C2)C3)CC1	-16%
O=C(COC(=O)c1cnccn1)N=c1sccn1Cc1ccccc1Cl	-3%
COc1cc(NC(=O)C(=O)Nc2ccc3nc4n(c(=O)c3c2)CCCCC4)cc(OC)c1OC	-15%&4%
CN1CCN(C(=O)CCN2C(=O)c3ccccc3C2=O)CC1	-1%
S=C(NCC1CCCO1)Nc1ccccc1 (stereo not drawn)	3%
CC(Oc1ccc(C(=O)c2ccccc2)cc1)C(=O)Nc1ccc(S(N)(=O)=O)cc1 (stereo not drawn)	-5%
COCc1ccc(C(=O)N2CCCC(C(=O)c3ccc(SC)cc3)C2)s1 (stereo not drawn)	-10%
CCc1ccc(NC(=O)CS(=O)CC(=O)Nc2ccc(-n3cnnn3)c(C)c2)cc1 (stereo not drawn)	-16%
OC(CSc1ccccc1Cl)CN1CCN(c2ccc(F)cc2)CC1 (stereo not drawn)	5%
O=C(OCCN(C1=NS(=O)(=O)c2ccccc21)c1ccc(Cl)cc1)c1ccco1	9%
Cc1ccc(-c2nnc(SCC(=O)N/N=C/c3ccc(C)s3)n2-c2ccccc2)cc1	-1%
CC(=O)Oc1ccc2oc(-c3ccccc3)c(C(N)=O)c2c1	?
O=C(CCN1C(=O)c2ccccc2C1=O)N1CCN(c2ccccn2)CC1	-7%
Cc1nc(SCC(=O)N(CC(C)C)C2CCS(=O)(=O)C2)c2ccccc2n1 (stereo not drawn)	-5%
Cn1cccc1C(=O)N1CCC2(CCN(Cc3nccs3)CC2)CC1	8%
CCN(C(=O)CSc1nc2cc(S(=O)(=O)N(CC)CC)ccc2n1CC)C1CCS(=O)(=O)C1 (stereo not drawn)	7%
COCCCn1c(-c2ccccc2Cl)n[nH]c1=S	-9%
O=C(O)c1cccc(Nc2ncnc3scc(-c4ccccc4)c23)c1	1%
COc1ccc(CCNC(=O)CNC(=O)c2ccc(Br)o2)cc1OC	10%
O=S(=O)(NCc1ccco1)c1ccc(S(=O)(=O)N2CCCCC2)cc1	-4%
CSc1nc(N2CCN(c3ccccc3Cl)CC2)c2ccccc2n1	-1%
CCOC(=O)c1nnn(CC(=O)Nc2cc(Cl)ccc2C)c1C(=O)OCC	-2%
CNS(=O)(=O)c1cccc(C(=O)OCCCC(=O)c2ccccc2)c1	6%
CC(=O)c1cccc(NC(=O)c2sc(-n3nc(C)c(Cc4ccccc4)c3C)nc2C)c1	6%
CCOC(=O)C(=Cc1cc(=O)c(OC)co1)C(=O)OCC	40µM*
O=S(=O)(c1ccc(-c2ccccc2)cc1)N1CCCC1	-5%
COc1cccc(-c2c3c([nH]c(=O)c2C#N)CCc2cc(OC)ccc2-3)c1	-30%
c1ccc2c(CCc3ccncc3)cccc2c1	1%
Cc1ccccc1Nc1cc(C(=O)NC2CCCCC2)c2ccccc2n1	-16%
CCC1(C)Cc2c(sc3c2c2ncnn2c2nnc(SCC(=O)NCc4ccco4)n32)CO1 (stereo not drawn)	2%
O=C(Nc1ncc2c(n1)-c1ccccc1CC2)c1ccc(F)cc1	-14%
CCOC(=O)c1cc(-c2ccccc2)n(-c2cccc(C(=O)N(CC)c3ccccc3)c2)c1C	-1%
NC(=O)C1CCCN(C(=O)c2ccc3oc(Cc4ccc(Cl)cc4)nc3c2)C1 (stereo not drawn)	20%
O=c1cnc2cnc(N3CCOCC3)nc2n1Cc1cccs1	-1%
COc1cc(C2N3CC4(C)CN2CC(C)(C3)C4)ccc1O (stereo not drawn)	5%
CN(C)S(=O)(=O)N1CCN(C(=O)N2CCCCCC2)CC1	2%
CCC(=O)N1CCc2cc(Br)cc(S(=O)(=O)N3CCC(C(=O)N(CC)CC)CC3)c21	8%
CCC(=O)N/C=C/n1cnc2cc(C(F)(F)F)ccc21	1%
O=C(O)c1ccccc1C(=O)NCC(O)c1ccccc1 (stereo not drawn)	3%
COc1ccc(NC2=C(NCCO)C(=O)c3ccccc3C2=O)cc1	?
Cc1ccc(CNC(=O)CSc2nc(=O)n(Cc3ccco3)c3c2CCC3)cc1	29%
COc1ccc(C(=O)NC(=S)N2CCOCC2)cc1[N+](=O)[O-]	18%
COc1cc(C(=O)N(C)CC2CCN(CCc3cccc(C(F)(F)F)c3)CC2)ccc1C	7%
COc1ccc(S(=O)(=O)N2CCN(c3cnccn3)CC2)cc1OC	3%
Cc1[nH]n(-c2ccc([N+](=O)[O-])cc2)c(=O)c1C=NCCN1CCN(C(=O)C(C)C)CC1	-17%
Cc1cccc(NS(=O)(=O)c2ccc(C)c(C(N)=O)c2)c1	14%

Next compounds
molecule	VDR inhibitor
O=C(NCC1CCCN(Cc2ccc3c(c2)OCCO3)C1)c1ccc2c(c1)OCO2 (stereo not drawn)	17%
O=C(NCc1ccccc1Cl)C(=O)NCC(c1ccco1)N1CCOCC1 (stereo not drawn)	17%
O=C(c1ccc2nc[nH]c2c1)N1CCN(S(=O)(=O)c2cccc(F)c2)CC1	?
CCN(CC)C(=O)CSc1nnc(COc2ccc(OC)cc2)n1N	-1%
Cc1cccc(NC(=O)Cc2ccc(Br)cc2)n1	8%
O=S(=O)(Cc1ccccc1)N1CCn2c(nc3ccccc32)C1	10%
Cc1ccccc1NC(=O)Cc1nc(CSc2nnc(C3CCCCC3)n2N)cs1	-2%
CCCC(=O)N(C1CC(C)C(C#N)(C#N)C1(C#N)C#N)N(C)C (stereo not drawn)	8.9µM*
O=C1COc2ccc(C(=O)COC(=O)c3cccnc3Cl)cc2N1	-16%
COc1ccc(OCC(O)CN2CCCCCC2)cc1 (stereo not drawn)	5%
CCOC(=O)C(=O)N=Nc1c(O)[nH]c2ccccc12	-1%
COc1ccc(NC(=O)CSc2nc(-c3ccncc3)nn2CC(=O)N2CCCC2)cc1	6%
CCCCOc1ccc(-c2nnc(-c3ccco3)o2)cc1	1%
CCN(CC)S(=O)(=O)c1cccc(-c2nc3n(n2)Cc2ccccc2-3)c1	5%
CCOc1c(N2CC(C)OC(C)C2)c(=O)c1=O (stereo not drawn)	-3%
COc1cc(/C=C/C(=O)c2ccc(NS(=O)(=O)c3ccc(C)cc3)cc2)cc(OC)c1O	-5%
COc1ccc(S(=O)(=O)N2CCN(CC(=O)NC(Cc3ccccc3)C(C)=O)CC2)cc1 (stereo not drawn)	-12%
Cc1ccc(-n2c(=O)[nH]cc(C(=O)Nc3ccc4c(c3)OCO4)c2=O)cc1C	-4%
CCCC(=O)Nc1ccc(N2CCN(S(C)(=O)=O)CC2)cc1	-4%
COc1ccccc1NCCC(=O)OCC(=O)Nc1ccccc1Cl	-14%
CC(=O)c1ccc(N2CCN(S(=O)(=O)c3cc(-c4onc(C)c4C)ccc3C)CC2)cc1	11%
CC[C@H](C)[C@H](NS(=O)(=O)c1ccc(C)cc1)C(=O)N1CCC(C(=O)N[C@@H](C)C(=O)O)CC1	0%
CCCN(CCC)CCCNS(=O)(=O)c1cc(Br)cc2c1N(C(C)=O)CC2	-2%
CCN(CC)CCC(C)OC(=O)c1ccc(O)cc1O (stereo not drawn)	-22%

More compounds:
| Structure | VDR inhibitor |
| --- | --- |
| CC(C)C[C@H](NC(=O)CNC(=O)[C@@H]1CCCN1C(=O)[C@H](CCCNC(=N)N)NC(=O)[C@H](CC(=O)O)NC(=O)[C@@H](NC(=O)[C@H](CC(N)=O)NC(=O)[C@@H](NC(=O)[C@H](CC(=O)O)NC(=O)CNC(=O)[C@@H](NC(=O)[C@@H](NC(=O)[C@H](C)NC(=O)[C@@H](N)CCC(N)=O)[C@@H](C)O)C(C)C)C(C)C)[C@@H](C)O)C(=O)N[C@@H](CC(C)C)C(=O)N[C@@H](CC(=O)O)C(=O)N[C@@H](CC(C)C)C(=O)N[C@@H](CCCCN)C(=O)O | 3% |
| COc1ccc(Cn2c(C(=O)O)c(CNCCc3cccs3)c3ccc(C)cc32)cc1 | 23% |
| O=C(CN1C(=O)COc2ccccc21)NCCN1CCc2ccccc2C1 | 2% |
| COc1cccc(C2(O)CC(C(F)(F)F)=NN2C(=O)c2ccccn2)c1 (stereo not drawn) | 15% |
| CCCc1ccc(OCC(=O)Nc2sc3c(c2C(=O)OC)CCCCC3)cc1 | ? |
| CNC(=S)NNC(=O)Cc1ccc(O)cc1 | -1% |
| COc1ccc(Nc2nc(C(=O)N(CCO)Cc3ccccc3)cs2)cc1 | 9% |
| O=C(CCN1C(=O)c2ccccc2C1=O)N1CCN(Cc2ccc(Cl)cc2Cl)CC1 | -18% |
| C/C(N)=C(/C#N)C(=O)CN1C(=O)NC(Cc2c[nH]c3ccccc23)C1=O (stereo not drawn) | -16% |
| O=C(NCCCn1ccnc1)c1cn(-c2ccccc2)nc1-c1ccc(F)cc1 | -2% |
| CCN(C(=O)COC(=O)COc1ccc(Cl)c(C)c1)C1CCS(=O)(=O)C1 (stereo not drawn) | 14% |
| O=C(C1CCN(CC2CC=CCC2)CC1)N(CCc1ccccc1)Cc1ccccc1 (stereo not drawn) | -20% |
| CC1=C2C(=O)OC(c3ccoc3)C2(C)CCC1 (stereo not drawn) | -5% |
| Cc1cc(=O)[nH]c2nnc(SCc3ccc(C(F)(F)F)cc3)n12 | -3% |
| CCOC(=O)N1CCN(C(=O)C2CC(=O)N(c3ccc(C)cc3)C2)CC1 (stereo not drawn) | -9% |
| COc1ccccc1N(CC(=O)Nc1cc(C)on1)S(=O)(=O)c1cccc(C(F)(F)F)c1 | 5% |
| O=C(Nc1ccccc1C(=O)N1CCN(CCO)CC1)c1cccc([N+](=O)[O-])c1 | -2% |
| N#C/C(=C\c1cn(Cc2ccc(C#N)cc2)c2ccccc12)C(=O)NCc1cccs1 | 4% |
| CN(C)CCCNC(=O)c1cc(C(=O)Cc2ccccc2)c[nH]1 | -5% |
| C/C(=C(/NC(=O)c1ccccc1)C(=O)O)c1ccco1 | -4% |
| CC(=O)Nc1nc(-c2cccs2)cs1 | 6% |
| Cn1c(=O)oc2cc(S(=O)(=O)N3CCCC(C(=O)NCC4COc5ccccc5O4)C3)ccc21 (stereo not drawn) | 10% |
| COc1ccc(S(=O)(=O)N2CCCOC2CNC(=O)C(=O)NCCCn2ccnc2)cc1 (stereo not drawn) | 7% |
| COc1cccc(-n2c(SCC(=O)N3CCc4ccccc43)nc3c([nH]c4ccccc43)c2=O)c1 | 7% |
| COc1ccc(S(=O)(=O)Nc2ccccc2-c2nc3ccccc3[nH]c2=O)cc1 | -15% |
| Cc1ccccc1N1C(=O)c2cc(N)ccc2N/C1=C\F | 2% |
| COc1cc(/C=C(\NC(=O)c2ccccc2)C(=O)NC(C(=O)O)c2ccccc2)cc(OC)c1OC (stereo not drawn) | -10% |
| CC1CN(C(=O)CCC(=O)N2CCN(c3cccc(C(F)(F)F)c3)CC2)c2ccccc2O1 (stereo not drawn) | 3% |
| O=c1c2ccccc2nc(SCc2ccccc2Cl)n1Cc1ccccc1 | 0% |
| O=C(Cn1nc(Cc2cccnc2)c2ccccc2c1=O)Nc1ccc2c(c1)OCO2 | -15% |

Sorted by number of heavy atoms (ascending): some entries from above
| Structure | VDR inhibitor |
| --- | --- |
| Cc1ccc2c(c1)N(C)/C(=C/c1cccc[n+]1C)S2 | -3% |
| COc1ccc(S(=O)(=O)Nc2ccccc2-c2nc3ccccc3[nH]c2=O)cc1 | -15% |
| COc1ccc(C2c3cc(OC)c(OC)cc3CC(=O)N2c2ccc(C)cc2)cc1 (stereo not drawn) | 8% |
| Cn1c(=O)oc2cc(S(=O)(=O)N3CCCC(C(=O)NCC4COc5ccccc5O4)C3)ccc21 (stereo not drawn) | 10% |

VDR inhibitor: hit marks shown above
| Structure | VDR inhibitor |
| --- | --- |
| CCOC(=O)C(=Cc1cc(=O)c(OC)co1)C(=O)OCC | 40µM* |
| CCCC(=O)N(C1CC(C)C(C#N)(C#N)C1(C#N)C#N)N(C)C (stereo not drawn) | 8.9µM* |

Next entries
| Structure | VDR inhibitor |
| --- | --- |
| Cc1ccccc1OCc1nc(-c2ccccc2)no1 | 1% |
| CCn1c(O)c(N=NC(=O)CNC(=O)c2ccccc2F)c2ccccc21 | -2% |
| O=C(CNC(=O)c1ccccc1Br)N/N=C/c1cccnc1 | 7% |
| CCc1cccc(NC(=O)CSCc2nc3sc(C)c(C)c3c(=O)[nH]2)c1 | -1% |
